Screening results: PubChem, National Center for Advancing Translational Sciences (NCATS)
gsp antag: qHTS for Antagonists of gsp, the Etiologic Mutation Responsible for Fibrous Dysplasia/McCune-Albright Syndrome: qHTS; gsp-mutant cells, cAMP HTRF, 30 min; control for the full effect not named in the record; Potency, µM (doses to about 76.9 µM), for inactives: top-dose activity change, negative = inhibition, actives largely listed as inhibitors; AID 624288, 2012; actives 0.4% (n = 340,000); active = falling curve of any shape with a large fitted effect; inconclusive = falling curve, mostly with a smaller effect; inactive = flat or rising curve; cell line not stated here;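 note: intracellular cAMP measured with PDE inhibitor Ro 20-1724 present during compound exposure; potency is the fitted concentration of half-maximal effect; % is set by controls: 0 for no effect and ±100 for the full control effect; nearly all actives have a fitted effect of over 65% in size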
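G418-selected cells were plated in DMEM/10% FBS for 16-24 h at 37C, then treated with compounds plus the PDE inhibitor […] (300 uM solution added) for 30 min at 37C. Intracellular cAMP was measured by HTRF after 30 min lysis at room temperature.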
Menin MLL FP FL: qHTS Assay for Inhibitors Targeting the Menin-MLL Interaction in MLL Related Leukemias: Competition With Fluorescein Labeled MLL-derived Peptide; Fluorescence polarization, fluorescein-MLL peptide displacement from menin; FP activity change, % at 61.4 µM; 290,000 tested, under 10 active; inconclusive = falling polarisation curve, or a change in total fluorescence; inactive = total fluorescence flat and polarisation flat or rising; no compound was filed as active; the % refers to the polarisation; negative = inhibition;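 note: % of control where 0% means no effect; inhibitors lower the polarisation; unlabelled MLL peptide was the positive control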
ClpP mod: qHTS Assay for Activators of ClpP. Potency, µM (highest dose often 57.5 µM), without a hit: top-dose activity change, negative = active. actives 1.9% (n = 340,000). purified B. subtilis ClpP, FRET peptide cleavage, 20 min. ATP-dependent Clp protease proteolytic subunit (Bacillus subtilis (strain 168)), P80244; active = well fitted falling curve with a large enough effect; inconclusive = small, poorly fitted or top-dose-only effect; inactive = no such curve, though single readings can be large or run the other way; note: potency is the fitted concentration of half-maximal effect; the source files actives as falling curves though it sought activators and does not explain the sign; nearly all actives have a fitted effect of over 65% in size; many hits overshoot -100%
Target sequence (P80244 whole entry, looked up): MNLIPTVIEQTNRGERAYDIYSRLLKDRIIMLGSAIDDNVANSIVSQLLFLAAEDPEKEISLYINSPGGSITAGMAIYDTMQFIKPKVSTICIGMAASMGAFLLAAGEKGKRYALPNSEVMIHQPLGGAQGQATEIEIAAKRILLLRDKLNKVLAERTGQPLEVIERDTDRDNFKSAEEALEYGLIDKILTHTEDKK
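Buffer: 100 mM Tris/HCl pH8, 100 mM KCl, 0.05% low protease BSA, 2.5% glycerol, 0.01% Tween-20. ClpP 10 microg/mL final; 20 min RT; delta FRET normalized to ADEP and DMSO controls.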
gsp agonist: qHTS for Agonist of gsp, the Etiologic Mutation Responsible for Fibrous Dysplasia/McCune-Albright Syndrome: qHTS | Potency, µM (series often up to 76.9 µM), inactives show at the top dose activation (cAMP increase), actives largely listed as activators | actives 0.13% (n = 340,000) | gsp mutant cells, cAMP HTRF, 30 min; control for the full effect not named in the record; active = well fitted activation curve with a large enough effect; inconclusive = small, poorly fitted or top-dose-only effect, or another doubt; inactive = no such curve, though single readings can be large or run the other way; cell line not stated here;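 note: phosphodiesterase inhibitor Ro 20-1724 added with compounds to block cAMP breakdown; potency is the fitted concentration of half-maximal effect; nearly all actives have a fitted effect of over 60% in size; about a fifth of the inactives were tested at one dose only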
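Cells stably selected in G418 were plated at 2000/well, grown 16-24 hr, then given compounds in DMSO with the PDE inhibitor […] (300 uM solution added) for 30 min at 37C; cAMP was read by HTRF.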
Sfp PPTase inh: qHTS Assay for Inhibitors of Bacillus subtilis Sfp phosphopantetheinyl transferase (PPTase); actives 3.5% (n = 310,000); Biochemical Sfp PPTase activity, qHTS; Potency, µM, inactives show max response, negative = inhibition, hits mostly inhibitors; AID 1490, 2009; 4'-phosphopantetheinyl transferase ffp (Bacillus subtilis), Q9F4F7; active = well fitted inhibition curve with a large enough effect; inconclusive = small, poorly fitted or top-dose-only effect, or another doubt; inactive = no such curve, though single readings can be large or run the other way;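 note: the enzyme is Sfp with the accession as filed and its product quenches rhodamine fluorescence; potency is the fitted concentration of half-maximal effect; 0% = enzyme reaction without inhibitor and -100% = no enzyme wells; top concentration of the series not given in the record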
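Sfp 15 nM + cpd, 15 min RT; start w/ rhodamine-CoA 5 uM, BHQ-2-YbbR 12.5 uM (final); 50 mM Hepes pH 7.6, 10 mM MgCl2, 0.01% NP-40, 0.01% BSA; read 525/598 nm at 0 and 30 min.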
PINK1 modulator: A Quantitative High throughput Screen to Identify Chemical Modulators of PINK1 Expression | PINK1 immunofluorescence, high-content cytometry, 24 h | Potency, µM (doses to about 76.6 µM), for the others: top-dose activation (PINK1 increase), hits mostly activators | actives 0.2% (n = 410,000) | AID 624263, 2012; active = well fitted activation curve with a large enough effect; inconclusive = small, poorly fitted or top-dose-only effect; inactive = flat fitted curve, though single readings scatter; cell line not stated here;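 note: potency is the fitted concentration of half-maximal effect; % of control where 0% means no effect; nearly all actives have a fitted effect of over 65% in size; a mitochondrial uncoupler was the plate control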
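Stable cell line, 250 cells/well, 12 h attachment; compounds pinned at 5 concentrations, 24 h; CCCP control. Fixed with nuclear dye, primary antibodies 12 h at 10 degrees C, secondary plus cell stain; laser-scanning cytometer read.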
D2 agonist: Beta-Arrestin HTS for Positive Allosteric Modulators of the Human D2 Dopamine Receptor: Agonists; DiscoveRx PathHunter D2 beta-arrestin, luminescence, 90 min; 100% = 57 uM dopamine signal; activation, % (test concentration not listed); actives 0.084% (n = 360,000); AID 624465, 2012; in the data active = activation above about 40%; inconclusive = about 15% to 40%; inactive = below about 15%; note: compound concentration not given in the record; the text of the record calls up to 30% inactive
Target sequence (P14416 whole entry, looked up): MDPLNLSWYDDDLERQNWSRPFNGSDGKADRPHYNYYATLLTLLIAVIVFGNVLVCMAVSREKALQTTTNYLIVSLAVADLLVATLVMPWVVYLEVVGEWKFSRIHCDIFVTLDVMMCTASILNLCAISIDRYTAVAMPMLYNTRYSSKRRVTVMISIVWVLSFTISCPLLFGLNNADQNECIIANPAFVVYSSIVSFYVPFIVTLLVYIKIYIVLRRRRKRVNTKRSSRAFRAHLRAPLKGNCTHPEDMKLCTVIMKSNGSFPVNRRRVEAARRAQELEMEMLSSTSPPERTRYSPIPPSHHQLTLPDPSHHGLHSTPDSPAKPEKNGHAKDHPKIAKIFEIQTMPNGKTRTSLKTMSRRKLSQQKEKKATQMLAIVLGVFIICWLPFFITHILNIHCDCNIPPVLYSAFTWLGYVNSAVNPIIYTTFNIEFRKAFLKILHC
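Agonist mode: compounds alone added to overnight-plated D2 PathHunter cells for 90 min at 37 C, with 57 uM final dopamine (EC100) defining full response. Beta-arrestin recruitment detected by chemiluminescent reagent, read after 1 h at ambient temperature.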
* marks the source's active call; other numbers are inactive results; ? = inconclusive; . = no result given; & = joins results of further samples; [ ] = remark or other dose.

SMILES | gsp antag | Menin MLL FP FL | ClpP mod | gsp agonist | Sfp PPTase inh | PINK1 modulator | D2 agonist
CC(NC(=O)Cc1cccs1)C(c1cccs1)N1CCN(c2ccccc2F)CC1 (stereo unspecified) | -9.8% | 1.6 | -2.9% | -46.9%[inhibitor] | 6.9% | -0.3%[38.3 µM] | -1.0
CCNC(=O)COC(=O)/C=C/c1cccs1 | 4.0% | 1.0 | -3.1% | -2.3% | 4.6% | -0.7% | 5.0
Cc1ccc(SCc2c(C(=O)N/N=C/c3cccs3)nnn2-c2nonc2N)cc1 | . | . | 0.4% | ? | . | 2.1% | -1.3
CN(C)S(=O)(=O)c1ccc(N2CCCC2)c(C(=O)Nc2ccccc2Br)c1 | -13.8% | . | . | 12.8%[15.4 µM] | . | 3.0% | 5.8
CCOC(=O)/C(=N\Nc1ccccc1[N+](=O)[O-])c1csc(N)n1 | -3.0% | -3.8 | 0.3% | 25.8% | -13.9% | 2.7% | 0.4
Cn1c(=O)c2c(nc(NCCc3ccccc3)n2Cc2ccccc2)n(C)c1=O | -15.0% | 1.6 | -1.5% | -4.6% | -2.2% | -0.4%[38.3 µM] | -1.1
CCOC(=O)C[C@H]1c2cc(C(F)(F)F)ccc2S(=O)(=O)N1Cc1ccccc1 | -2.0% | . | 0.7%&-1.0% | . | . | 1.0% | 0.7
C=CCc1ccc(OCc2ccc(C(=O)OC)o2)c(OC)c1 | -2.0% | 0.5 | -0.2% | ? | 0.7% | -0.3% | -3.1
CCOC(=O)c1[nH]c2ccc(C)cc2c1N=CN(CC)CC | -10.4% | 0.5 | -11.7% | 0.2% | 12.8% | -0.2% | -5.0
COc1ccc(C(=O)Cn2c(NCCCO)nc3ccccc32)cc1 | . | . | -1.3% | -70.7%[inhibitor] | . | -0.2% | -2.2
Cc1ccc(NC(=O)c2sc3nc(N4CCOCC4)c4c(c3c2N)CCCC4)cc1 | . | . | ? | ? | . | 11.2% | -0.6
COc1ccc([N+](=O)[O-])cc1NC(=O)COC(=O)Cc1cc(OC)c(OC)c(OC)c1 | 50.1µM* | -3.9 | -1.0% | 6.7% | 7.9% | 1.8% | -3.7
C#CCN(C[C@@H]1[C@@H](OC(=O)NCCCCCC)[C@@H](OC(=O)NCCCCCC)Cn2c(=O)ccc(=O)n21)S(=O)(=O)c1ccc(C)cc1 | . | . | -2.3% | -0.7% | . | 0.2% | -2.7
Cc1ccc(C(=O)/C=C/c2cc(C#N)n(C)c2C)cc1 | -1.8% | 1.8 | . | -4.6%[15.4 µM] | 5.2% | 5.9% | -5.0
Cc1nc(C(F)(F)F)ccc1C(=O)N1CCC1(C)C(=O)Nc1ccc2c(c1)OCO2 (stereo unspecified) | . | . | 0.7% | . | . | -1.2% | -1.1
CCc1nn(CCCC(=O)N2CCc3ccccc3C2)c(=O)c2cc3occc3n12 | 3.8% | ? | -1.6% | 20.8% | -68.2% | -0.9% | -0.3
O=C(NCCCN1CCOCC1)C1COc2ccccc2O1 (stereo unspecified) | 15.5% | 1.9 | -3.8% | 3.2% | 8.8% | -2.5% | -1.5
NNC(=O)c1ccc(COc2cccc3ccccc23)o1 | -3.3% | -2.3 | -1.5% | 22.3% | 16.3% | 1.8% | 12.2
O=C(c1ccc(CSc2ccc(Cl)cc2)cc1)N1CCCC1 | -19.2% | -1.2 | -0.7% | -10.4% | 4.9% | -1.0% | 5.2
CCOc1ccc(S(=O)(=O)N2CCC(C(=O)NCc3ccncc3)CC2)cc1Cl | 7.6% | -7.7 | . | -31.8%[inhibitor] | 8.2% | 3.0% | 5.3
CC(C)(C)n1nnnc1CN1CCC(NC(=O)NC2CCCCC2)CC1 | -0.4% | -1.5 | 1.1% | 4.6% | 16.3% | -3.3% | -5.9
COc1ccc(CN2CCOCCOCCOCCOCCOCC2)cc1 | 0.3% | 1.7 | -0.3% | 6.3%[15.4 µM] | 17.4% | 2.0% | -2.7
CC(C)CCNC(=O)CCc1nnc(Cc2c[nH]c3ccccc23)o1 | 2.0% | -2.6 | -2.3% | -25.2% | 4.4% | 2.5% | -1.5
COc1ccc(OC)c(S(=O)(=O)Nc2ccc(-c3ccc4nncn4n3)cc2)c1 | -2.7% | . | 0.2% | 15.5%[15.4 µM] | . | 0.0% | 1.9
CCOC(=O)[C@@H]1[C@H]2COc3ccc(Br)cc3[C@@H]2N2C(=O)N(c3ccc(Br)cc3)C(=O)[C@@]12C | -2.2% | . | -3.9% | ? | . | -1.1% | -2.8
COC(=O)Cc1nc(NC(=O)c2cccs2)sc1C | 2.8% | -1.1 | -0.8% | -3.7%[15.4 µM] | 22.7% | 1.6% | 2.0
CC(C)(C)NS(=O)(=O)c1ccc(OCC(=O)NCC2CCCO2)cc1 (stereo unspecified) | 7.5% | . | . | -13.4%[15.4 µM] | . | 0.3% | 0.2
O=C1CC(=O)N(CCc2ccccc2)C(=O)N1CCc1ccccc1 | 2.1% | 12.5 | 1.3% | ? | ? | 0.6% | -0.5
NS(=O)(=O)c1ccc(CCNCc2cccs2)cc1 | 19.3% | 1.6 | . | -0.8%[15.4 µM] | -11.0% | -1.2% | -0.8
CCOc1cc(NC(=O)Nc2ccc(F)cc2)c(OCC)cc1NC(=O)CC | 3.4% | 2.4 | 0.8% | -38.4%[inhibitor] | 5.2% | 2.8% | 8.3
Cc1ccc(SC(C)C(=O)Nc2ncn[nH]2)cc1 (stereo unspecified) | 1.9% | 0.2 | 1.1% | . | 2.4% | 2.2% | -0.6
O=C(CN1CCN(c2ncccn2)CC1)NCc1ccc2c(c1)OCO2 | 2.8% | 3.6 | -0.5% | -0.8%[15.4 µM] | 4.9% | 0.8% | ?
O=C(NNc1ccccc1)OCc1ccccc1 | . | . | 0.3% | ? | . | -0.3% | -5.4
Cc1ccc(O)c(NC(=O)C2CC(c3ccc(F)cc3)=NO2)c1 (stereo unspecified) | 6.7% | 0.6 | 1.1% | -9.0% | 0.5% | 9.1% | 4.9
Cc1ccc(NNC(N)=S)cc1Cl | ? | 0.2 | -0.4% | -19.3% | 12.6µM* | 0.3% | -3.9
CC(=O)Nc1cccc(NC(=O)CSc2nc(=O)n(CCN3CCOCC3)c3c2CCCC3)c1 | 15.8% | . | -6.0% | 0.1%[15.4 µM] | . | 0.1% | -3.7
CC(C)[C@@H]1C=C(C(=O)O)O[C@H](OCCCCO)C1 | 6.0% | 1.4 | -2.2% | -15.8% | ? | 0.7% | -2.6
OC(CNC1CCCc2ccccc21)COc1c(Cl)cccc1Cl (stereo unspecified) | 8.9% | 8.7 | -1.3% | 0.0% | ? | 16.0% | 3.1
CC/C(O)=C1\C(=O)CC(c2ccccc2)CC1=NCCC(=O)O (stereo unspecified) | 4.7% | 3.1 | -0.9% | -4.1% | -2.5% | 0.9% | -1.3
Cc1nn(CC2CC2)c(=O)n1-c1cccc(Cl)c1 | 6.7% | -1.6 | . | -6.1%[15.4 µM] | 15.1% | 3.0% | 5.9
O=C(COc1ccc(Oc2ccccc2)cc1)NCc1cn2ccccc2n1 | . | -2.8 | . | 7.7%[15.4 µM] | -19.3% | 4.2% | -2.4
CCNc1nc(SCC(=O)Nc2ccccc2)nc(N2CCOCC2)n1 | 8.4% | 0.3 | . | 6.7%[15.4 µM] | 5.9% | 0.4% | -0.4
CN(C)S(=O)(=O)N1CCN(c2ccc([N+](=O)[O-])cc2)CC1 | 9.2% | -0.3 | . | 11.3% | 11.7% | 1.1% | 1.6
COc1ccc(NC(=O)CCNS(=O)(=O)c2ccc3c(c2)CC(C)N3C(=O)C2CC2)cc1 (stereo unspecified) | 1.7% | 2.4 | -0.7% | ? | 13.5% | -1.4% | -2.8
Nc1ccn(C2OC(COP(=O)(O)O)C(O)C2O)c(=O)n1 (stereo unspecified) | -10.9% | . | -1.3% | -43.2%[inhibitor] | . | -5.2% | -2.3
CCc1cccc(CC)c1NC(=O)C1SC(=Nc2ccccc2C)C(c2nc3ccccc3s2)=C1N (stereo unspecified) | -7.4% | 6.3 | -0.4% | 24.7% | 13.8% | -0.4% | -0.5
CN(C(=O)COC(=O)CNC(=O)c1ccc(C(C)(C)C)cc1)c1c(N)n(Cc2ccccc2)c(=O)[nH]c1=O | 10.8% | . | -0.6% | ? | . | -1.1% | -2.1
COc1cccc(-c2nnc(NC(=O)c3cccs3)s2)c1 | -6.6% | -2.1 | . | ? | 8.4% | 1.1% | 1.9
COc1cc(CC(=O)Nc2ccc(N3CCOCC3)cc2)cc(OC)c1OC | 2.4% | 0.1 | . | 2.6%[15.4 µM] | 1.7% | 3.1% | 5.9
Cc1cccc(C)c1NC(=O)CN(C)C(=O)C1CC(=O)N(c2cccc3ccccc23)C1 (stereo unspecified) | -6.5% | . | 1.8% | -98.5%[inhibitor] | . | -1.6% | ?
Next section
SMILES | gsp antag | Menin MLL FP FL | ClpP mod | gsp agonist | Sfp PPTase inh | PINK1 modulator | D2 agonist
O=C(N/N=C/c1cccnc1)c1cc(-c2ccc(Br)cc2)nc2ccccc12 | -11.7% | . | -1.5% | 0.3% | ? | 3.3% | 6.2
Cc1nc2nc(C(F)(F)F)[nH]c2nc1C | . | . | -15.0% | -6.4% | . | 0.1% | 0.4
COc1ccc(-c2ccc(N(C)C)cc2)cc1[C@H]1[C@@H]2C=CCC[C@@]2(C)C(=O)N1Cc1ccccc1 | -14.9% | 0.8 | 3.7% | . | ? | 9.7% | -3.9
OC(c1cccc(Cl)c1)c1nc(-c2csc3ccccc23)cs1 (stereo unspecified) | . | . | -0.7% | . | . | 1.1% | -5.1
CCCNC(=O)COC(=O)c1cc2c(=O)n3ccccc3nc2s1 | 3.2% | 1.9 | 20.0% | 11.2µM* | -24.7% | 2.1% | 0.0
O=C(COC(=O)C1=Cc2ccccc2OC1)NCc1ccco1 | 0.5% | 4.9 | -13.5% | -45.3%[inhibitor] | 6.1% | -0.3% | -3.6
O=C(/C=C/c1ccccn1)c1ccc(Br)cc1O | 13.5% | . | -5.1% | -36.2%[inhibitor] | -21.3% | 2.7% | 1.4
